HIV TAR-Tat: HIV-1 TAR-Tat binding disruption | HIV-1 TAR RNA, Tat peptide displacement FRET; active compounds read high | z-score (test concentration not listed) | actives 0.6% (n = 100,000);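 note: score is relative to mean and SD of negative controls; some compounds called inactive have numbers as strong as hits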
CDC25B CDK2 inh: human CDC25B-CDK2/CyclinA binding inhibition; P30305+P24941; HTRF CDC25B-CDK2/CyclinA binding, anti-His/anti-Flag; active compounds read high; z-score (test concentration not listed); actives 0.72% (n = 94,000); AID 1259370;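 note: score is relative to mean and SD of negative controls; strong numbers were not always called active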
* = called active by the depositor; / = no result given.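 Rule for the calls: active = z-score from 3 up in half or more of its runs; inactive = the rest.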 Rows were taken by chance; about 0.87% have a hit in one of these screens.

Values run as follows: HIV TAR-Tat, CDC25B CDK2 inh
- CNc1nnc(SCc2csc3ccccc23)s1
    /, 0.06
- COCCOC(=O)C1=C(C)NC2=C(C(=O)CC(C)(C)C2)C1c1ccc(N(C)C)cc1 (stereo not drawn)
    1.4, -0.43
- COC(=O)c1c(-n2cccc2)sc2c1CCCC2
    -2.4, /
- CCOc1ccc2c(c1)C(C)=CC(C)(C)N2S(=O)(=O)c1ccc(Cl)cc1
    0.2, 0.06
- CC1Cc2ccccc2N1C(=O)c1cnc2n(c1=O)CCS2 (stereo not drawn)
    /, 0.24
- O=S(=O)(OC[C@H]1CC2C=CC1CC2)c1ccccc1 (stereo partly drawn)
    /, -0.88
- CCCCOCCCN1CC(O)=C(c2nc3ccccc3[nH]2)C1=N
    3, -3.5
- O=C(NCCNC(=O)c1cnccn1)c1cnccn1
    0.72, -0.64
- COc1ccccc1-c1nc(=S)c2c([nH]1)Oc1c(cccc1OC)C2
    0.63, -0.32
- CN(C(=O)c1nn(C)c2c1COc1ccccc1-2)c1cccc(Cl)c1
    1.6, -1.2
- Cn1c(=O)c2c(-c3ccccc3)n(-c3ccc4[nH]c(=O)[nH]c4c3)cc2n(C)c1=O
    -0.14, 2.5
- COc1ccc(CN2CCN(Cc3ccco3)CC2)c(OC)c1
    -0.44, 1.2
- Cc1oc(-c2ccc(Cl)cc2)cc1C(=O)N1CCOCC1
    /, -0.17
- Cc1ccc(N2CC(C(=O)N3CCN(c4ccc(-c5noc(C6CCC6)n5)cc4)CC3)CC2=O)cc1 (stereo not drawn)
    0.77, /
- Cc1cc(C)c2cc(C(=O)N3CCc4ccccc4C3)[nH]c2c1
    /, -0.45
- CC(=O)N1c2ccccc2C(=O)C1Sc1nc(C)cc(-c2ccccc2)n1 (stereo not drawn)
    1.3, 0.59
- COc1cccc2c(=O)c(C#N)c[nH]c12
    1.3, -2.7
- Nc1nonc1-c1nc2ccccc2n1CC(=O)N1CCCCC1
    -0.72, 0.05
- Cc1ccc(CN(C(=O)COc2ccc(F)cc2)C2CCS(=O)(=O)C2)o1 (stereo not drawn)
    2, -0.42
- COCCCNC(=O)c1cn2c3c(ccc(Cl)c3c1=O)OC(C)C2 (stereo not drawn)
    2.1, /
- COC(=O)CN1C(=O)C(O)(CC(=O)c2ccc(Br)cc2)c2ccccc21 (stereo not drawn)
    0.7, -0.47
- Cc1cccc(OCCCCn2c(C(C)O)nc3ccccc32)c1 (stereo not drawn)
    -0.49, -0.47
- Cc1noc(/C=C/c2ccc(N3CCCC3)cc2)c1[N+](=O)[O-]
    -9, -1.7
- COc1ccc(OCCCCCCc2c(C)n[nH]c2C)cc1
    -1.3, -0.73
- COc1ccc(-c2noc(C(C)Oc3ccccc3)n2)cc1 (stereo not drawn)
    3, -3.5
- CC(=O)N1c2ccccc2C(=O)C1N1CCCCC1 (stereo not drawn)
    0.83, 0.76
- O=C1CC(c2ccccc2)=NN1
    /, -1.5
- Cc1ccccc1Nc1nc(C2(C)CC(C(C)C)C(=O)O2)cs1 (stereo not drawn)
    0.24, -0.6
- O=C(O)C1(c2ccc(O)cc2)CCCC1
    2, -0.48
- O=C(CN1Cc2ccccc2C1=O)Nc1ccc(Cl)cn1
    -0.07, /
- Cn1c(=O)c2c(ncn2C/C=C/c2ccccc2)n(C)c1=O
    -1, 0.45
- CC(=O)N1c2ccc(S(=O)(=O)N3CCCC3)cc2CC1C(=O)NC(C)C (stereo not drawn)
    1.9, /
- O=C(CN1C(=O)COc2ccc(C(=O)N3CCCC3)cc21)NC1CCCC1
    1.8, /
- Cc1cc(Sc2nc(C)cc(C)c2C#N)nc(N)n1
    /, -1
- O=C(Nc1nccs1)c1ccccc1-c1nc(-c2ccc(Cl)cc2)no1
    -0.75, /
- Cc1cc(-c2ccccc2)nc(SCc2cn3c(C)cc(C)nc3n2)n1
    0.07, /
- O=C(CN1N=NC2C(=O)N(c3ccc(F)c(F)c3)C(=O)C21)Nc1ccc(F)cc1F (stereo not drawn)
    2, /
- CC(C)NC(=O)C(=O)NCC(c1ccco1)S(=O)(=O)c1ccc(F)cc1 (stereo not drawn)
    0.85, /
- COCc1noc2c1C(c1ccc(F)cc1)C(C#N)=C(N)N2 (stereo not drawn)
    /, 0.08
- CCN(Cc1ccccc1)C(=O)Cn1cc2c(n1)-c1c(oc(C(=O)N3CCCC3)c1C)CC2
    -0.36, /
- CCCOC(=O)COc1ccc2c3c(c(=O)oc2c1C)CCCC3
    /, -0.82
- C=CC[C@H](N)C(=O)O
    /, -0.26
- CCOC(=O)c1c(NC(=O)COc2ccc(Br)cc2)sc2c1CCCC2
    1.3, -1.1
- Cc1nn2cnnc2c(C)c1CCC(=O)Nc1ccc(F)cc1F
    -0.24, /
- O=C1CCCC2=C1C(c1ccc(O)cc1)Nc1ccc3ccccc3c12 (stereo not drawn)
    /, 0
- COc1cc(NC(=O)C2=Cc3sc(C)c(C)c3CS2)cc(OC)c1
    -7.1, /
- CCC1=NN(S(=O)(=O)c2ccccc2)C(O)(C(F)(F)F)C1 (stereo not drawn)
    /, -0.61
- CC(C)N1C(=O)c2ccccc2N(Cc2ccccc2)S1(=O)=O
    /, 0.12
- CC(=O)N1CCc2c(sc3nc(SCc4ccc(F)cc4)n(CC4CCCO4)c(=O)c23)C1 (stereo not drawn)
    3.3, -1.5
- O=C(CN1c2ccccc2S(=O)(=O)c2ccccc21)N1CCCc2ccccc21
    -0.69, /
- COc1ccc(OC)c(-n2nnc(-c3nc(-c4ccccc4)no3)c2C)c1
    0.34, /
- O=C(NCc1ccc(F)cc1)c1cc2n(n1)C(C(F)(F)F)CC(c1ccco1)N2 (stereo not drawn)
    -2.5, 1.1
- CCOC(=O)c1cc(-c2ccc(S(=O)(=O)Nc3ccc(F)cc3Cl)s2)on1
    0.51, /
- CCCCN1CC(c2nc3ccccc3n2CCCOc2ccc(Cl)cc2)CC1=O (stereo not drawn)
    1.2, 2.1
- Cc1cc(NCc2ccc3c(c2)OCO3)n2nc(-c3ccccc3)nc2n1
    0.04, /
- Cc1ccc(N2CN(Cc3ccco3)CNC2=S)c(C)c1
    /, -1.9
- Cc1cc(C)c(-c2c(N3CCCCC3)c(=O)c2=O)cc1C
    -0.39, /
- O=C(CSc1nc(-c2ccco2)nc2cc(=O)[nH]n12)Nc1ccc2c(c1)OCCO2
    1.8, /
- Cc1ccc(S(=O)(=O)N2CCSC2c2ccc(Cl)cc2)cc1 (stereo not drawn)
    1.1, -2.1
- CCN(CC)c1nc(Nc2cccc(Cl)c2)c2cnn(C)c2n1
    1.4, /

(continued)
| SMILES | HIV TAR-Tat | CDC25B CDK2 inh |
| --- | --- | --- |
| O=C(CSC1=NCCS1)n1c2c(c3ccccc31)CCCC2 | -0.67 | -2.5 |
| O=C(CCc1nnc2ccc(NCc3ccc(F)cc3)nn12)NCC1CCN(C2CCCC2)C1 (stereo not drawn) | 1.6 | / |
| O=C1CCCc2oc3c(Cl)cc(NS(=O)(=O)c4cccs4)cc3c21 | / | -2 |
| O=C(Cn1cnc2c(nnn2Cc2ccccc2F)c1=O)NCc1ccc2c(c1)OCO2 | 0.28 | -0.85 |
| Cc1c(C(=O)N2CCOCC2)oc2c1-c1nn(CC(=O)NC3CCC(C)CC3)cc1CC2 (stereo not drawn) | 1.8 | / |
| CCP(=O)(CC)CSC(=N)N | / | -2.2 |
| CCc1nn(CC(=O)NCCCN2CCCCC2CC)c(=O)c2cc3sc(C)cc3n12 (stereo not drawn) | -0.11 | 0.78 |
| CC1(C)CCc2cc(-c3ccnc(SCC(=O)c4ccccc4)n3)ccc2O1 | / | -0.89 |
| CC(C(=O)C12CC3CC(CC(C3)C1)C2)N(C)C (stereo not drawn) | / | 0.35 |
| O=C(CN1C(=O)C2CCCN2c2ncc(Cl)cc21)Nc1ccc(F)cc1F (stereo not drawn) | -3.5 | 0.01 |
| C=CCn1c(SCC(=O)Nc2nc(C)c(C)s2)nnc1-c1cc2ccccc2o1 | 0.5 | / |
| COc1ccccc1-n1ncc2c(=O)[nH]c(SCC(=O)Nc3ccc4c(c3)OCO4)nc21 | 0.61 | / |
| CC(=O)OCCCCn1c(COc2ccccc2)nc2ccccc21 | -1.9 | 0.29 |
| CCOC(=O)c1cnc(S/C=C/C(=O)c2ccccc2)nc1N | / | -1.3 |
| Cc1nc(N2CCCCC2)ncc1C(=O)NCCc1ccco1 | 1.1 | / |
| Cc1cc(C)c(S(=O)(=O)NCCc2csc3nc(-c4cccc(F)c4)nn23)cc1C | -0.48 | / |
| N#Cc1c(Cl)cccc1NCCCN1CCCCC1 | / | -0.2 |
| Nc1c(-c2nc(-c3cccnc3)no2)nnn1-c1cccc(Cl)c1 | 0.03 | / |
| CC1CCN(c2oc(/C=C/c3ccc(F)cc3)nc2C#N)CC1 | -0.83 | -2.2 |
| CCOC(=O)NC(Nc1ncn(C(NC(=O)OCC)(C(F)(F)F)C(F)(F)F)n1)(C(F)(F)F)C(F)(F)F | / | -0.22 |
| CSc1ccc(C2c3[nH]c4ccccc4c3CCN2C(=O)c2cccnc2)cc1 (stereo not drawn) | 2.1 | / |
| CCCN[C@H]1CS(=O)(=O)C[C@@H]1S(=O)(=O)c1ccccc1 | -2 | -1.1 |
| CCNS(=O)(=O)c1ccc2c(c1)c(=O)n(CC(=O)N1CCCC1)c(=O)n2C | 2 | / |
| CCC(C)C(NC(=O)C1CCC(C)CC1)C(=O)NCc1ccco1 (stereo not drawn) | 2.8 | -0.42 |
| Cc1cccc(-n2ncc3c(Nc4ccccc4)ncnc32)c1 | / | -1.4 |
| Cc1ccc2c(c1)n(S(=O)(=O)c1ccc(F)cc1)c(=O)n2S(=O)(=O)c1ccc(F)cc1 | 0.52 | 0.25 |
| NC(=O)c1cc(S(=O)(=O)N2CCN(Cc3ccc4c(c3)OCO4)CC2)cs1 | 1.1 | / |
| C=C[C@@H](C1=CC(=O)C(OC)=C(OC)C1=O)c1ccccc1 | 0.9 | / |
| O=C(Nc1ccccc1F)c1cnn2c3c(cnc12)CCCCCC3 | -0.37 | / |
| C#CCOc1ccc(C2CC(=O)Nc3c2cnn3-c2nc3ccccc3s2)cc1OC (stereo not drawn) | -0.6 | / |

4 of these compounds in a different format:
Cc1cccc(-n2ncc3c(Nc4ccccc4)ncnc32)c1
- HIV TAR-Tat: /
- CDC25B CDK2 inh: -1.4
CCC(C)C(NC(=O)C1CCC(C)CC1)C(=O)NCc1ccco1 (stereo not drawn)
- HIV TAR-Tat: 2.8
- CDC25B CDK2 inh: -0.42
C#CCOc1ccc(C2CC(=O)Nc3c2cnn3-c2nc3ccccc3s2)cc1OC (stereo not drawn)
- HIV TAR-Tat: -0.6
- CDC25B CDK2 inh: /
NC(=O)c1cc(S(=O)(=O)N2CCN(Cc3ccc4c(c3)OCO4)CC2)cs1
- HIV TAR-Tat: 1.1
- CDC25B CDK2 inh: /

Remaining list, next part
| SMILES | HIV TAR-Tat | CDC25B CDK2 inh |
| --- | --- | --- |
| CN(C)c1ccc(C2Nc3cccc4cccc(c34)N2)cc1 | 1.5 | -0.66 |
| CC1=CS(=O)(=O)CC1Sc1n[nH]c(C)n1 (stereo not drawn) | 1.6 | -0.86 |
| O=S(=O)(Cc1ccccc1)N1CCC(c2ccncc2)CC1 | 0.78 | / |
| Cc1nc2nc(C(F)(F)F)[nH]n2c(=O)c1C | 0.44 | -1.2 |
| CCc1ccc(S(=O)(=O)NCc2cn3ccsc3n2)s1 | / | 0.28 |
| O=C(NC1=NCCN1)c1c(Cl)cccc1Cl | / | -1.3 |
| COc1ccc(Nc2n[nH]c3c2CCc2ccccc2-3)cc1 | 2.3 | -2.7 |
| CC(C)Cc1nc2sc3c(NCC(C)O)ncnc3c2c2c1COC(C)(C)C2 (stereo not drawn) | 0.18 | -8.3 |
| CCCN1CCN(C(=O)Cn2nc(CC)n3c(cc4occc43)c2=O)CC1 | 3.8 | -0.28 |
| CCc1nnc(NC(=O)c2c3c(nc4ccccc24)C(=O)N(C2CCCCC2)C3)s1 | 0.63 | / |
| CCOC(=O)Cc1csc(NC(=O)c2cnc3sccn3c2=O)n1 | / | -2.2 |
| Cc1cc(-c2ccc(C)c(S(=O)(=O)N(CCCN3CCOCC3)Cc3ccco3)c2)on1 | 1.4 | / |
| O=S(=O)(c1ccc(F)cc1)N1CCc2cc(-c3ccsc3)ccc21 | 1.5 | -1.8 |
| Cc1ccc(Nc2nc3ccccc3c3nnc(C)n23)cc1 | -0.63 | / |
| CC(C)Oc1cccc(C2C=C(C(=O)O)Nc3nnnn32)c1 (stereo not drawn) | 1.4 | / |
| CC(C)CCNC(=O)c1nc(CS(=O)(=O)c2ccc(Cl)cc2)no1 | 0.4 | / |
| CCCc1cc(=O)n2[nH]c(NCc3ccc(C(C)C)cc3)nc2n1 | 2.2 | 0.43 |
| O=C(CCS(=O)(=O)c1ccc2c(c1)NC(=O)CS2)Nc1ccc(F)cc1F | -0.72 | / |
| CCCc1cc(=O)n2nc(N(C)CC(=O)NCCc3ccc(SC)cc3)sc2n1 | -0.06 | -0.74 |
| CCOC(=O)c1cccc(N2C(=O)C3C4c5ccccc5C(C(C)=O)(c5ccccc54)C3C2=O)c1 (stereo not drawn) | / | -3.7 |
| NNC(=O)CNc1ccc2c(c1)OCO2 | / | 1.2 |
| CCN1C(=O)c2ccccc2Sc2ccc(NC(=O)NCCC3=CCCCC3)cc21 | 1.3 | -0.22 |
| COc1ccc(CNc2c(S(=O)(=O)c3ccccc3)cnc3cc(OC)c(OC)cc23)cc1 | 2.1 | -0.1 |
| Cc1ccc(NC(=S)NCc2ccncc2)c(C)c1 | / | -1.4 |
| Cc1nc2oc3c(-c4ccc(Br)cc4)ncnc3c2c2c1COC(C)(C)C2 | 0.73 | -2.4 |
| Cn1c(C(=O)NC2CC2)cc2sccc21 | / | -0.37 |
| CC1CCN(c2nn3nnnc3c3ccccc23)CC1 | 0.62 | / |
| CCOC(=O)C1=C(C)Nc2nc(SCc3ccccc3)[nH]c(=O)c2C1c1ccncc1 (stereo not drawn) | / | 0.41 |
